Bioassay records from PubChem BioAssay.
GIV-Gai inh – GIV-Galpha-i interaction inhibition. 210,000 tested, 0.42% active. Galpha-i3/FITC-GIV peptide fluorescence polarization, 90 min; active compounds read low; scaled: aluminum fluoride 0%, vehicle 100%. P08753. percent of control (FP), % (no concentration beside the values);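 active = replicate mean at 85% of control or lower, very high polarization wells dropped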;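 note: wells of about 15 µL received 100 nL stock; the first replicate is given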
Target sequence (P08753 whole entry, looked up): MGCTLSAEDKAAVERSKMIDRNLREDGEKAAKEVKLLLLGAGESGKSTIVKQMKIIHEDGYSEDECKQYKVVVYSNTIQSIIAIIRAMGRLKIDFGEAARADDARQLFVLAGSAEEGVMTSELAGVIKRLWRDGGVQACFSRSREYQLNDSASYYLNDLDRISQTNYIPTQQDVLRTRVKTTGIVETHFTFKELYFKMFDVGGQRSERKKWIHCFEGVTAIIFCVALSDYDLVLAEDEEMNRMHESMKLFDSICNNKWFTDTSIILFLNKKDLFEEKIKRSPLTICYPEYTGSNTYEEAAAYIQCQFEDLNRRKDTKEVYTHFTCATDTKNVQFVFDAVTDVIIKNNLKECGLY
HCMV UL50-53 inh – inhibitors of HCMV UL50-UL53 nuclear egress complex interaction | HTRF UL50-UL53 interaction, normalized percent inhibition | inhibition, % (no concentration beside the values) | AID 1918969 | 190,000 tested, 0.15% active;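 active = both replicates at 50% or more, plus weaker picks with an unusually low signal ratio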;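 note: stock transfer was 100 nL into about 20 µL; 0% = negative control wells and 100% = wells with untagged competitor protein; inactives centre near -12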
Sa growth inh – S. aureus growth inhibition; 170,000 tested, 0.53% active; AID 720641; relative growth, % (concentration not given with the values); S. aureus RN4220 growth, OD600, 20 h, 42 °C; active compounds read low;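 active = growth at 42 °C up to 50% and 20 or more points under that at 30 °C, or under 10% at both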;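 note: 300 nL library stock went into each well; scaled to the means of positive and negative controls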
Sa growth inh second temp – recorded beside Sa growth inh, whose call it bears; relative growth, %; measured here: growth at 30 °C;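 optical density after 20 h as mean of two plates; 100% = untreated growth and lower means inhibition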
Starred values were filed as active, the others as inactive; & = joins results of further samples.

Screening O=C(Nc1ccccc1C(=O)NCc1cccnc1)c1ccc(Cl)cc1 returned GIV-Gai inh 109, HCMV UL50-53 inh -9, Sa growth inh 98 and Sa growth inh second temp 94.
For Cn1cccc1Cc1nnc(SCC(=O)NCC2CCCO2)n1Cc1ccccc1 (stereo not drawn) the results were GIV-Gai inh 97 and HCMV UL50-53 inh -10.
`COc1cc(C2C(C#N)=C(N)Oc3n[nH]c(-c4cc(OC)c(OC)c(OC)c4)c32)ccc1OC(=O)N1CCOCC1` (stereo not drawn) gave GIV-Gai inh 102 and HCMV UL50-53 inh -17.
COc1cc(OC)c(NC(=O)NCCCN2CCC(N3CCCCC3)CC2)cc1Cl was read as GIV-Gai inh 106, HCMV UL50-53 inh -22, Sa growth inh 98 and Sa growth inh second temp 92.
`Cc1cc(F)ccc1S(=O)(=O)Nc1ccc(O)c(Sc2ncn[nH]2)c1` gave GIV-Gai inh 103, HCMV UL50-53 inh 9, Sa growth inh 88 and Sa growth inh second temp 93.
Screening Cc1ccccc1N=c1scc(-c2ccc3c(c2)NC(=O)CO3)n1Cc1ccco1 returned HCMV UL50-53 inh -16, Sa growth inh 104 and Sa growth inh second temp 64.
`CN(C)CCNC(=O)c1cc2c(Cl)nc3ccccc3c2s1` gave GIV-Gai inh 105, Sa growth inh 111 and Sa growth inh second temp 99.
For O=C(CSC1=NC=NC2N=CNC12)N1CCN(Cc2ccc3c(c2)OCO3)CC1 (stereo not drawn) the results were GIV-Gai inh 105, HCMV UL50-53 inh 4, Sa growth inh 122 and Sa growth inh second temp 96.
`Oc1ccc2oc3c(c2c1/C=N/n1cnnc1)CCCC3` gave GIV-Gai inh 102, HCMV UL50-53 inh -8, Sa growth inh 95 and Sa growth inh second temp 96.
O=C(O)CCCOc1ccccc1F was read as GIV-Gai inh 106, HCMV UL50-53 inh -27, Sa growth inh 96 and Sa growth inh second temp 89.
COc1ccc(C(CNC(=O)c2cc(-c3ccc4c(c3)OCCO4)on2)N2CCOCC2)cc1 (stereo not drawn) was read as GIV-Gai inh 106 and HCMV UL50-53 inh -19.
NS(=O)(=O)c1ccc(CCNC(=O)c2cc(=O)c3ccccc3o2)cc1 was read as GIV-Gai inh 100, HCMV UL50-53 inh -39, Sa growth inh 90 and Sa growth inh second temp 88.
Screening C(=N\c1nccs1)/c1cccnc1 returned HCMV UL50-53 inh 5, Sa growth inh 75 and Sa growth inh second temp 83.
For c1cncc(-c2nc3ccccc3o2)c1 the results were GIV-Gai inh 151, HCMV UL50-53 inh -18, Sa growth inh 96 and Sa growth inh second temp 67.
`COc1cc(C2NC(=O)NC(C)=C2C(=O)OCC(C)C)ccc1OCc1ccccc1` (stereo not drawn) gave GIV-Gai inh 106 and HCMV UL50-53 inh -4.
Cc1ccc(CNC(=O)c2cc(=O)c3cc(C)ccc3o2)cc1 was read as GIV-Gai inh 101, HCMV UL50-53 inh -10, Sa growth inh 95 and Sa growth inh second temp 94.
Screening CC(C)Oc1ccc(C(=O)Nc2cccc(N3CCCS3(=O)=O)c2)cc1 returned GIV-Gai inh 96 and HCMV UL50-53 inh 0.
Screening CSc1nc2cc(-c3ccc(Cl)cc3)nn2c(N)c1C#N returned GIV-Gai inh 102, HCMV UL50-53 inh -9, Sa growth inh 115 and Sa growth inh second temp 94.
O=S(=O)(NC1CCCCC1)c1cc(Cl)ccc1Cl was read as GIV-Gai inh 97, HCMV UL50-53 inh -24, Sa growth inh 99 and Sa growth inh second temp 101.
`CCC1(C)OC(=O)N2CCc3cc(OC)c(OC)cc3C21C` (stereo not drawn) gave GIV-Gai inh 99, HCMV UL50-53 inh -3, Sa growth inh 91 and Sa growth inh second temp 89.
Screening CCOC(=O)c1cccnc1SCC(=O)O returned GIV-Gai inh 106, HCMV UL50-53 inh 3, Sa growth inh 112 and Sa growth inh second temp 82.
`Cc1ccccc1Cn1cc(NC(=O)c2cc(C3CC3)on2)cn1` gave GIV-Gai inh 100, HCMV UL50-53 inh 6, Sa growth inh 91 and Sa growth inh second temp 99.
Screening Cc1noc2[nH]c(=O)cc(C(F)(F)F)c12 returned HCMV UL50-53 inh -28, Sa growth inh 111 and Sa growth inh second temp 67.
`Cc1noc(C)c1CSc1nc(-c2ccccc2)cs1` gave HCMV UL50-53 inh -4, Sa growth inh 102 and Sa growth inh second temp 98.
For CCOC(=O)C1CCN(CC(=O)N2CCCc3c2c(=O)oc2ccc(OCc4ccccc4)cc32)CC1 the results were GIV-Gai inh 99, HCMV UL50-53 inh -22, Sa growth inh 117 and Sa growth inh second temp 106.
Screening Cc1cc(C)nc(NS(=O)(=O)c2ccc(NC(=O)c3cc([N+](=O)[O-])cc([N+](=O)[O-])c3)cc2)n1 returned GIV-Gai inh 100 and HCMV UL50-53 inh -69.
`O=C(N/N=C/c1ccccc1O)C1SCCCS1` gave HCMV UL50-53 inh -19, Sa growth inh 122 and Sa growth inh second temp 90.
Screening O=C1CCS(=O)(=O)N1c1ccc(S(=O)(=O)NC2CCCC2)cc1 returned GIV-Gai inh 104 and HCMV UL50-53 inh -12.
Cc1nc2c(-c3ccc(F)cc3)c(C)nn2c(C)c1CCC(=O)N1CCN(c2ccccc2)CC1 was read as GIV-Gai inh 103, HCMV UL50-53 inh -8, Sa growth inh 103 and Sa growth inh second temp 90.
Screening COC(=O)c1cc(S(=O)(=O)NCc2csc(-c3cccs3)n2)oc1C returned GIV-Gai inh 109, HCMV UL50-53 inh -46, Sa growth inh 105 and Sa growth inh second temp 94.
For CC(=O)OCc1ccc(COC(C)=O)c(OC(C)=O)c1OC(C)=O the results were GIV-Gai inh 106, HCMV UL50-53 inh -40, Sa growth inh 93 and Sa growth inh second temp 82.
For Cc1ccc(CSc2nc3ccc(NC(=O)CC(C)C)cc3s2)cc1 the results were GIV-Gai inh 100, HCMV UL50-53 inh -22, Sa growth inh 107 and Sa growth inh second temp 88.
Screening O=S(=O)(c1ccc(-c2noc(-c3ccc4c(c3)OCO4)n2)cc1)N1CCCC1 returned GIV-Gai inh 106 and HCMV UL50-53 inh -19.
CCOC(=O)c1cc(-c2ccc(S(=O)(=O)NCCN3CCC(C)CC3)s2)on1 was read as GIV-Gai inh 99, HCMV UL50-53 inh -95, Sa growth inh 93 and Sa growth inh second temp 90.
Screening CCOc1cccc(C(=O)Nc2ccc(-c3nc4ncccc4o3)cc2C)c1 returned GIV-Gai inh 104, Sa growth inh 86 and Sa growth inh second temp 90.
For COc1cc(C(=O)OCCCn2c(=O)c3c(ncn3CCCN(C)C)n(C)c2=O)cc(OC)c1OC the results were GIV-Gai inh 103, HCMV UL50-53 inh -15, Sa growth inh 91 and Sa growth inh second temp 83.
`COc1ccc(C(=O)Nc2ccccc2C(=O)NCc2ccco2)cc1` gave GIV-Gai inh 98, HCMV UL50-53 inh 0, Sa growth inh 98 and Sa growth inh second temp 101.
CC(=O)Nc1cccc(C(=O)N2CCN(Cc3ccc4c(c3)OCO4)CC2)c1 was read as GIV-Gai inh 110, Sa growth inh 84 and Sa growth inh second temp 96.
Screening COc1cscc1C(=O)NC1(O)C(=O)c2ccccc2C1=O returned GIV-Gai inh 64*, HCMV UL50-53 inh 53*, Sa growth inh 87 and Sa growth inh second temp 83.
Screening CC(=O)N1CCCc2cc(S(=O)(=O)N3CCCC(C(=O)Nc4cccc(F)c4)C3)ccc21 (stereo not drawn) returned GIV-Gai inh 101, Sa growth inh 95 and Sa growth inh second temp 76.
For CC(=O)Nc1ccc2nc3c(=O)[nH]c(=O)[nH]c3nc2c1 the results were GIV-Gai inh 66*, HCMV UL50-53 inh -146, Sa growth inh 98 and Sa growth inh second temp 72.
O=C(Cc1nc2ccccc2[nH]1)NCc1ccco1 was read as HCMV UL50-53 inh -40, Sa growth inh 117 and Sa growth inh second temp 86.
For O=C(CCCn1ncn2c(cc3occc32)c1=O)N1CCc2ccccc2C1 the results were GIV-Gai inh 97, HCMV UL50-53 inh -34, Sa growth inh 88 and Sa growth inh second temp 86.
Screening CC(C(=O)NCc1ccc(Cl)cc1)n1ccc2cc(S(=O)(=O)N3CCCC3)ccc21 (stereo not drawn) returned GIV-Gai inh 97, Sa growth inh 122 and Sa growth inh second temp 85.
`COCc1nc(OC)c2c(C)c(C(=O)O)sc2n1` gave HCMV UL50-53 inh -15, Sa growth inh 94 and Sa growth inh second temp 86.

Of the compounds above, these contain a COOH group:
O=C(O)CCCOc1ccccc1F was read as GIV-Gai inh 106, HCMV UL50-53 inh -27, Sa growth inh 96 and Sa growth inh second temp 89.
Screening CCOC(=O)c1cccnc1SCC(=O)O returned GIV-Gai inh 106, HCMV UL50-53 inh 3, Sa growth inh 112 and Sa growth inh second temp 82.
`COCc1nc(OC)c2c(C)c(C(=O)O)sc2n1` gave HCMV UL50-53 inh -15, Sa growth inh 94 and Sa growth inh second temp 86.

The list goes on.
Cc1cccn2c(=O)cc(CN3CCCC3c3ccc4c(c3)OCCO4)nc12 (stereo not drawn) was read as HCMV UL50-53 inh -28, Sa growth inh 79 and Sa growth inh second temp 88.
Screening CC(C)(C)OC(=O)N1CCN(c2ccc(NC(=O)c3cc4ccccc4oc3=O)cc2)CC1 returned GIV-Gai inh 97, HCMV UL50-53 inh -10, Sa growth inh 102 and Sa growth inh second temp 80.
O=C(CN1CCCc2ccccc21)N1CCCC1c1ccc2c(c1)OCCCO2 (stereo not drawn) was read as HCMV UL50-53 inh -20, Sa growth inh 100 and Sa growth inh second temp 75.
`CC(C)n1cnc2cc(NC(=O)c3ccco3)ccc21` gave GIV-Gai inh 98, HCMV UL50-53 inh -6, Sa growth inh 90 and Sa growth inh second temp 81.
COc1ccccc1CNC(=O)c1cc2sc(Cl)cc2n1C was read as GIV-Gai inh 104, HCMV UL50-53 inh -8, Sa growth inh 105 and Sa growth inh second temp 92.
`CCOc1ccccc1Nc1sc(C(=O)c2ccc(Cl)cc2)c(N)c1C(=O)NCCc1ccccc1` gave GIV-Gai inh 106, Sa growth inh 102 and Sa growth inh second temp 97.
For C1CN(C(N2CCOCC2)N2CCOCC2)CCO1 the results were GIV-Gai inh 101, HCMV UL50-53 inh -10, Sa growth inh 115 and Sa growth inh second temp 83.
For COc1ccc(C(C)(O)C(CN2CCOCC2)c2ccccc2)cc1 (stereo not drawn) the results were GIV-Gai inh 100&104, HCMV UL50-53 inh -13&8, Sa growth inh 93 and Sa growth inh second temp 82.
For Cc1ccc2nc(/N=C/c3ccc(Cl)cc3Cl)sc2c1 the results were HCMV UL50-53 inh -14, Sa growth inh 87 and Sa growth inh second temp 77.
For CCOc1ccc2nc(N3CCCC(C(=O)NCc4ccccc4Cl)C3)sc2c1 (stereo not drawn) the results were GIV-Gai inh 105, HCMV UL50-53 inh -2, Sa growth inh 116 and Sa growth inh second temp 78.
O=C(CN1CCN(c2ccc(S(=O)(=O)N3CCCC3)cn2)CC1)Nc1ccc(Cl)c(C(F)(F)F)c1 was read as HCMV UL50-53 inh -22, Sa growth inh 71 and Sa growth inh second temp 90.
Screening COc1ccc(-c2noc(N3CCCC(C(=O)Nc4cccnc4)C3)n2)cc1 (stereo not drawn) returned GIV-Gai inh 104, Sa growth inh 98 and Sa growth inh second temp 79.
Screening Cc1csc(=O)n1CCN(C)CC(=O)Nc1ccc(Cl)c(C(F)(F)F)c1 returned HCMV UL50-53 inh 1, Sa growth inh 111 and Sa growth inh second temp 81.
`O=S(=O)(c1ccc2c(c1)OCCO2)N1CCCC1c1ccccc1Cl` (stereo not drawn) gave GIV-Gai inh 100 and HCMV UL50-53 inh -5.
Screening CCOc1ccc(NC(=O)CN(C)c2ccc(S(=O)(=O)N3CCN(C)CC3)cn2)cc1OCC returned HCMV UL50-53 inh 2, Sa growth inh 114 and Sa growth inh second temp 99.

Continued, overlapping the part above by two compounds.
`O=S(=O)(c1ccc2c(c1)OCCO2)N1CCCC1c1ccccc1Cl` (stereo not drawn) gave GIV-Gai inh 100 and HCMV UL50-53 inh -5.
Screening CCOc1ccc(NC(=O)CN(C)c2ccc(S(=O)(=O)N3CCN(C)CC3)cn2)cc1OCC returned HCMV UL50-53 inh 2, Sa growth inh 114 and Sa growth inh second temp 99.
Screening CCOC(=O)C1CCN(c2ncnc3c2cnn3-c2ccccc2)CC1 returned HCMV UL50-53 inh -5, Sa growth inh 91 and Sa growth inh second temp 90.
COC(=O)c1cc2c(cc1NC(=O)CSCCc1ccccn1)OCO2 was read as GIV-Gai inh 104, HCMV UL50-53 inh -11, Sa growth inh 102 and Sa growth inh second temp 89.
`CCC1CCCCN1C(=O)CSc1ncccc1C(=O)Oc1ccccc1Cl` (stereo not drawn) gave GIV-Gai inh 102, HCMV UL50-53 inh 2, Sa growth inh 123 and Sa growth inh second temp 95.
`O=C(CSc1nnc2sc3ccccc3n12)NC1CCCC1` gave HCMV UL50-53 inh -2, Sa growth inh 97 and Sa growth inh second temp 91.
Screening O=C(Nc1cc(C(F)(F)F)ccc1N1CCCCC1)c1cc[n+]([O-])cc1 returned HCMV UL50-53 inh -25, Sa growth inh 115 and Sa growth inh second temp 82.
For FC(F)(F)c1cccc(NN=C2C3CC4CC(C3)CC2C4)n1 the results were GIV-Gai inh 112, HCMV UL50-53 inh -12, Sa growth inh 106 and Sa growth inh second temp 90.
`COc1ccccc1C1CC(c2ccc(Cl)cc2)=NN1S(=O)(=O)c1ccccc1` (stereo not drawn) gave GIV-Gai inh 106 and HCMV UL50-53 inh -6.
